Screens from PubChem BioAssay.
FPRL1 binder = human FPRL1 ligands by binding competition, primary screen, cell-based, FPR counter-screen, flow cytometry. N-formyl peptide receptor 2 (Homo sapiens), P25090. FPRL1-expressing cells, fluorescent ligand binding inhibition. inhibition, %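 (tested at 6.7 µM)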. 0.3% of 24,000 active. AID 441, 2006;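 also: 0% = buffer alone and 100% = receptor blocker peptide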
Target sequence (P25090 whole entry, looked up): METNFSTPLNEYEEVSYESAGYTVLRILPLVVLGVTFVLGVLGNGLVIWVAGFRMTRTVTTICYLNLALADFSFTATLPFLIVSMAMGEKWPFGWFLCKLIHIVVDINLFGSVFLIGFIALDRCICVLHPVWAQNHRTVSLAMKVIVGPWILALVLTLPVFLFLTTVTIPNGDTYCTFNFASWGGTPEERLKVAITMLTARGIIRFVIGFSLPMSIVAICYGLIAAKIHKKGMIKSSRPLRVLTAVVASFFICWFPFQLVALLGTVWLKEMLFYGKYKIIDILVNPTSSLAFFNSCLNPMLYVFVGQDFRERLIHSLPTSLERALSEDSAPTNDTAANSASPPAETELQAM
FPR binder = human FPR ligands by binding competition, primary screen, cell-based, FPRL1 counter-screen, flow cytometry; inhibition, %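 (tested at 6.7 µM)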; 0.74% of 24,000 active; FPR-expressing cells, fluorescent ligand binding; AID 440, 2006;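 also: 0% = buffer wells and 100% = receptor blocker peptide wells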
Target sequence (P21462 whole entry, looked up): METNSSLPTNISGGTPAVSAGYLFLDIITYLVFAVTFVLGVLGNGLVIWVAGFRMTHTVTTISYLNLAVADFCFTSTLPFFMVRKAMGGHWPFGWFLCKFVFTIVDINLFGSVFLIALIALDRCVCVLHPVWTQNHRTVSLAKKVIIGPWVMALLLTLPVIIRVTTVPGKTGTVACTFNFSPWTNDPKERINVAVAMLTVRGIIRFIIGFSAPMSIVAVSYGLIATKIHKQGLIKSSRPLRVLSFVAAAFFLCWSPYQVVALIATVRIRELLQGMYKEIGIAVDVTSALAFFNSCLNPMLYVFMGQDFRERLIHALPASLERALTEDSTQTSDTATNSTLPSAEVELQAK
VCAM-1 down imaging = inhibitors of TNFa-induced VCAM-1 surface display, imaging, high-content imaging, pooled HUVEC, TNFa stimulus (AID 456); HUVEC TNFa-induced VCAM-1 surface expression, immunofluorescence imaging; numbers were filed only for top-ranked candidate wells; one-dose inhibition, % at 5 µM; IC50 in µM for titrated hits; 0.2% of 10,000 active;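 active = top tenth filtered wells with inhibition above zero that passed visual or statistical confirmation; inactive = the rest, including hits rejected on review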;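 also: 0% = stimulated vehicle wells and 100% = unstimulated cells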
VCAM-1 up imaging = enhancers of VCAM-1 display on endothelial cells, imaging, high-content imaging, pooled HUVEC, TNFa stimulus (AID 457); 0.2% of 10,000 active; Pooled HUVEC, TNFa-induced VCAM-1 immunofluorescence imaging; hits of this screen are not shown here; calls only;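 active = a top-ranked rise in VCAM-1 staining upheld on image or statistical review; inactive = the rest, including candidates rejected on review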;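 also: compounds tested at 5 µM in the well; cells exposed to compound for 24 hours before fixing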
VCAM-1 down = inhibitors of TNFa-induced VCAM-1 surface display, cell-based, plate reader, pooled HUVEC, TNFa stimulus (AID 454). inhibition, % at 5 µM. 0.2% of 10,000 active. HUVEC TNFa-induced VCAM-1 surface immunofluorescence, plate reader; numbers were filed only for top-ranked candidate wells;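 active = compound among top-ranked inhibitors of TNF-induced VCAM-1 adhesion protein staining, with the hit upheld by image or statistical review; inactive = the rest, including hits rejected on review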;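 also: 0% = TNFa with vehicle and 100% = cells without TNFa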
* hit, by the source's call; i = inactive; nt = no result given.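 The calls were made as follows, unless noted: active = mean above 30%; inconclusive = self-fluorescent; inactive = the rest.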 Only part of the results is shown, so the mix of outcomes need not match the whole.

SMILES	FPRL1 binder	FPR binder	VCAM-1 down imaging	VCAM-1 up imaging	VCAM-1 down
CCOC(=O)Nc1c(C(=O)OC)[nH]c2cccc(OC)c12	3	1	i	i	i
CCCOc1cccc(C2/C(=C(/O)c3ccc(F)cc3)C(=O)C(=O)N2CCN(C)C)c1 (stereo unspecified)	10	8	nt	nt	nt
Cc1cccn2c(=O)c3cc(C(=O)NC(C)c4ccccc4)c(=N)n(CCCn4ccnc4)c3nc12 (stereo unspecified)	5	-6	nt	nt	nt
Nc1ccc(-c2ccc(N)cc2C(F)(F)F)c(C(F)(F)F)c1	-4	1	i	i	i
CC(C)OC(=O)c1nnn(-c2nonc2N)c1CN1CCCCCC1	-3	27	nt	nt	nt
COCCCn1c(=S)[nH]c2ncccc2c1=O	0	-6	nt	nt	nt
O=C(C1CCC(N2C(=O)C3CC=CCC3C2=O)CC1)N1CCCCC1 (stereo unspecified)	0	0	i	i	i
CCOC(=O)C1=C(C)NC(=O)NC1c1ccc(OCC(=O)N2CCCCC2)cc1 (stereo unspecified)	4	-7	nt	nt	nt
CNCCCC12CCC(c3ccccc31)c1ccccc12	4	-3	i	i	i
CN(C)c1ccc(C2N(C(=O)N3CCOCC3)CCN2S(=O)(=O)c2ccccc2)cc1 (stereo unspecified)	7	-2	nt	nt	nt
CN(C)c1ccc(/C=C/c2ccncc2)cc1	-11	-7	i	i	i
Cc1onc(-c2ccccc2)c1C(=O)N1CCN(C(=O)c2ccco2)CC1	2	-6	i	i	i
O=C(Cn1cnc2c(nnn2-c2ccc(F)cc2)c1=O)NCC1CCCO1 (stereo unspecified)	-4	-3	nt	nt	nt
Cc1ccc(OCCC(=O)OCC(=O)C(C)(C)C)cc1	-7	-3	i	i	i
COc1ccc(-n2c(=O)[nH]cc(C(=O)N3CCCc4ccccc43)c2=O)cc1	-2	-4	nt	nt	nt
Cc1cccc(Cn2cnc3c(nnn3Cc3ccc(Cl)cc3)c2=O)c1	-5	-2	nt	nt	nt
CCC(=O)N1c2ccccc2-c2nnc(SC)nc2OC1c1ccc(OC)c(OC)c1 (stereo unspecified)	2	-1	nt	nt	nt
CN(Cc1cccs1)CC(O)COCc1ccco1 (stereo unspecified)	-3	-1	i	i	i
CCCNS(=O)(=O)c1ccc(OCC(=O)NCc2ccc3c(c2)OCO3)cc1	-4	1	i	i	i
O=C(CSc1nc(-c2ccco2)cc(C(F)(F)F)n1)N1CCCc2ccccc21	-11	-2	i	i	i
CCOCCCNC(=O)C(NC(=O)C1CCC(=O)N1)c1ccc(C)cc1 (stereo unspecified)	8	-4	nt	nt	nt
O=C(NCc1cccnc1)C1CC(=O)N(C2CCCCC2)C1 (stereo unspecified)	-2	2	nt	nt	nt
Cc1cccc(N=c2oc3cc(O)ccc3cc2C(N)=O)c1	-6	-2	nt	nt	nt
CC12C(=O)N(c3ccccc3C(=O)O)C(=O)C1C1C=CC2C1 (stereo unspecified)	1	-2	nt	nt	nt
COc1ccc(C2=CC(c3sccc3C)n3nnnc3N2)cc1 (stereo unspecified)	-4	-2	nt	nt	nt

Seven successive compounds already listed:
SMILES	FPRL1 binder	FPR binder	VCAM-1 down imaging	VCAM-1 up imaging	VCAM-1 down
CCCNS(=O)(=O)c1ccc(OCC(=O)NCc2ccc3c(c2)OCO3)cc1	-4	1	i	i	i
O=C(CSc1nc(-c2ccco2)cc(C(F)(F)F)n1)N1CCCc2ccccc21	-11	-2	i	i	i
CCOCCCNC(=O)C(NC(=O)C1CCC(=O)N1)c1ccc(C)cc1 (stereo unspecified)	8	-4	nt	nt	nt
O=C(NCc1cccnc1)C1CC(=O)N(C2CCCCC2)C1 (stereo unspecified)	-2	2	nt	nt	nt
Cc1cccc(N=c2oc3cc(O)ccc3cc2C(N)=O)c1	-6	-2	nt	nt	nt
CC12C(=O)N(c3ccccc3C(=O)O)C(=O)C1C1C=CC2C1 (stereo unspecified)	1	-2	nt	nt	nt
COc1ccc(C2=CC(c3sccc3C)n3nnnc3N2)cc1 (stereo unspecified)	-4	-2	nt	nt	nt

(cont.)
SMILES	FPRL1 binder	FPR binder	VCAM-1 down imaging	VCAM-1 up imaging	VCAM-1 down
O=C(c1ccc2c(=O)n(Cc3ccco3)c(=S)[nH]c2c1)N1CCN(c2ccccc2)CC1	0	-1	nt	nt	nt
CCc1cc2c(=O)c(-c3cscn3)coc2cc1O	-3	3	i	i	i
N#Cc1c(N)nc2c(c1-c1ccncc1)CCCCC2	-4	-4	i	i	i
CC1Oc2ccccc2N(CC(=O)NCc2cccs2)C1=O (stereo unspecified)	-4	0	i	i	i
O=C(NCc1cccs1)C1CC(=O)N(c2ccccc2)C1 (stereo unspecified)	-2	5	i	i	i
COc1ccc(-c2nc(C#N)c(NCCN(C)C)o2)cc1	-2	-3	nt	nt	nt
O=C1c2ccccc2NC2CCCCCN12 (stereo unspecified)	9	-3	i	i	i
CCN(CC)CCN1C(=O)C(O)=C(C(=O)c2ccco2)C1c1ccccn1 (stereo unspecified)	0	2	i	i	i
COC(=O)c1cc2sccc2n1Cc1ccc(C)cc1	4	4	nt	nt	nt
CCOC(=O)CNC(=O)CSc1nc(N)cc(N)n1	5	-7	i	i	i
Cn1c(=O)c2c(nc(N3CCCCC3)n2CCNC2=NCCC2)n(C)c1=O	-1	5	nt	nt	nt
O=C1c2ccccc2C(=O)C1c1nccc2ccccc12	5	-2	nt	nt	nt
O=C(NCc1ccco1)Nc1ccc2nsnc2c1	5	-7	i	i	i
CCCS(=O)(=O)N1CCC(C(=O)N2CCCC2)CC1	4	-2	i	i	i
Cn1c(CN2CCCCC2)nc2cc(NC(=O)c3ccccc3)ccc21	0	0	i	i	i
CN1CCc2c(c3ccccc3n2Cc2ccccc2)C1	5	-12	nt	nt	nt
Cc1ccc(-n2c(-c3ccncc3)nnc2-c2cccs2)cc1	-4	0	i	i	i
Cc1cc(C)c2nc(C(F)(F)F)nc(NCCCN3CCCC3=O)c2c1	-2	-1	i	i	i
O=C(NCCN1C(=O)C2C3C=CC(C3)C2C1=O)Nc1ccccc1 (stereo unspecified)	4	0	nt	nt	nt
COCc1cc(C)nc2sc(C(=O)Nc3nccs3)c(N)c12	-2	1	nt	nt	nt
COc1ccccc1N1CCN(C(=O)c2sc3nc(-c4ccccc4)cn3c2C)CC1	-10	-4	nt	nt	nt
CC(C)C1N=C2c3ccccc3N=C(SCC#N)N2C1=O (stereo unspecified)	2	-5	nt	nt	nt
O=C1c2ccccc2NC(c2ccc(Cl)cc2Cl)N1O (stereo unspecified)	1	2	nt	nt	nt
CCCCN(C)C(=O)Cn1cnc2sc(C)cc2c1=O	0	-3	nt	nt	nt
Cc1ccc(-c2nc(C#N)c(N3CCCCC3)o2)cc1	-4	-3	nt	nt	nt
Continuation:
SMILES	FPRL1 binder	FPR binder	VCAM-1 down imaging	VCAM-1 up imaging	VCAM-1 down
CCOc1ccc(-n2c(SCC(=O)Nc3ccc4c(c3)OCCO4)nc3c(c2=O)SCC3)cc1	-1	2	nt	nt	nt
O=C(CSc1nnc(-c2ccc(Cl)s2)o1)N1CCc2ccccc21	6	-9	nt	nt	nt
O=C(NCC(=O)N(CCc1ccccc1)C(C(=O)NC1CCCC1)c1cccnc1)c1ccco1 (stereo unspecified)	5	2	i	i	i
O=C(NCCCN1CCN(c2ccccc2F)CC1)C1CCCN(S(=O)(=O)c2cnc[nH]2)C1 (stereo unspecified)	2	-2	nt	nt	nt
Cc1coc2cc3oc(=O)c4c(c3cc12)CCC4	-4	0	i	i	i
CCOC(=O)/C=C1\CC(=O)Nc2nonc2N1	0	-7	i	i	i
COc1ccc(Cc2nc(-c3ccc(NC(=O)c4cccnc4)cc3)no2)cc1	-4	-4	i	i	i
Cc1cccc(N2C(=O)CC(Sc3nc(C)c4c(n3)CCCC4)C2=O)c1 (stereo unspecified)	2	-7	i	i	i
O=C(c1cc(-c2ccc(O)cc2)on1)N1CCCc2ccccc21	1	0	nt	nt	nt
CCOc1ccc(CCNC(=O)C2CCCN(c3nnc(-n4cccc4)s3)C2)cc1OCC (stereo unspecified)	-8	-4	nt	nt	nt
Cc1ccccc1-c1nc(CN2CCC(C(=O)NCC3CCCO3)CC2)c(C)o1 (stereo unspecified)	9	-1	nt	nt	nt
CN(Cc1ccccc1)c1nnc(N)s1	4	3	nt	nt	nt
Cn1c(=O)oc2cc(S(=O)(=O)NC3CCCc4ccccc43)ccc21 (stereo unspecified)	1	1	nt	nt	nt
CCC(=O)N1CCCc2cc(S(=O)(=O)N3CCC(N4CCCCC4)CC3)ccc21	-1	-5	nt	nt	nt
CCN1CCN(c2nc(-c3cccnc3)nc3ccccc23)CC1	-6	-2	i	i	i
COc1ccccc1C1C(C(C)=O)=C(O)C(=O)N1CCc1ccccc1 (stereo unspecified)	-6	18	i	i	i
CCC(=O)N(Cc1cc2c(C)ccc(C)c2[nH]c1=O)C1CCCCC1	2	8	i	i	i
C/C(=N\O)C(C)/[N+]([O-])=C/c1nc(C)c(C)n1O (stereo unspecified)	-2	2	i	i	i
Cc1ccc(C)c(-n2c(Cc3cc(=O)[nH]c(=O)[nH]3)nnc2SC(C)C)c1	-5	-2	nt	nt	nt
CCOC(=O)N1CCN(C(=O)CSCC(=O)Nc2nc(-c3ccc(Cl)s3)cs2)CC1	-2	1	nt	nt	nt
COc1ccc(-c2nc3n(n2)C(c2cccnc2)C(C(N)=O)=C(C)N3)cc1 (stereo unspecified)	-3	1	nt	nt	nt
CC(=O)Nc1ccc(S(=O)(=O)NC(CC(=O)NCCC2=CCCCC2)C(C)C)cc1 (stereo unspecified)	1	-5	nt	nt	nt
CCC(CC)c1nc(NCCC(=O)O)c2ccccc2n1	-6	0	nt	nt	nt
COc1ccccc1N1CCN(c2cc(=O)n(-c3ccccc3Cl)c(=O)[nH]2)CC1	7	11	nt	nt	nt
CCC(=O)N1CCc2cc(S(=O)(=O)CCC(=O)O)ccc21	-2	0	nt	nt	nt
Additional structures follow.
SMILES	FPRL1 binder	FPR binder	VCAM-1 down imaging	VCAM-1 up imaging	VCAM-1 down
CC1CCCCN1CCNC(=O)C1CCN(S(=O)(=O)N2CCCCC2)CC1 (stereo unspecified)	2	3	nt	nt	nt
CC(=O)c1ccccc1NS(=O)(=O)c1c(C)nn(-c2ccccc2)c1C	-4	-6	i	i	i
Cc1cccc(N(C)S(=O)(=O)c2ccc3c(c2)CCC(=O)N3)c1	0	-1	nt	nt	nt
O=C(CCS(=O)(=O)Cc1ccccc1F)NCCCN1CCCCC1	0	-4	nt	nt	nt
COc1nc(Nc2ccc3c(c2)OCO3)nc(OC)n1	2	-5	nt	nt	nt
CC(C)C(=O)Nc1ccc(-c2nc3cccnc3o2)cc1	0	5	i	i	i
O=C(Nc1cccnc1)c1ccc2c(c1)C(=O)N(Cc1cccnc1)C2=O	0	4	i	i	i
CCN(CC)C(=O)CSc1nnc([C@@H](N)Cc2ccccc2)o1	10	7	i	i	i
O=C(NCCc1ccccc1)C1CCN(S(=O)(=O)N2CCC3(CC2)OCCO3)CC1	5	-1	i	i	i
O=C(Cn1c(=O)oc2cc(S(=O)(=O)N3CCCCCC3)ccc21)NC1CCCCCCC1	2	3	nt	nt	nt
CC1CCCCN1S(=O)(=O)c1ccc2c(c1)CCN2C(=O)C1CCC1 (stereo unspecified)	-3	-1	nt	nt	nt
Cc1cc(NC(=O)CSc2nc3ccsc3c(=O)n2NC(=O)c2ccccc2)no1	6	0	i	i	i
CCN(CCCNC(=O)c1c(C)cc(=O)oc1C)c1cccc(C)c1	-4	0	nt	nt	nt
CNCCCC1c2ccccc2C=Cc2ccccc21	0	-3	i	i	i
COc1ccccc1-n1c(=O)c2c3c(sc2n2c(SC(C)C)nnc12)CCC3	-3	0	i	i	i
CCOC(=O)C(NC(=O)c1ccc(OC)cc1)(N1CCOCC1)C(F)(F)F (stereo unspecified)	4	-3	i	i	i
N#CCCN1CCN(S(=O)(=O)c2ccc(S(=O)(=O)N3CCCC3)cc2)CC1	2	-3	nt	nt	nt
Cn1c(=O)c2c(nc(NCCc3ccccc3)n2CC(=O)NCCc2ccccc2)n(C)c1=O	8	14	i	i	i
CC1CCCN(CCCNC(=O)c2coc3nc4ccccc4nc23)C1 (stereo unspecified)	-11	-4	nt	nt	nt
COc1ccc(N=C2SCC(=O)N2c2ccc(OC)cc2)cc1	4	2	nt	nt	nt
CCn1c(=O)cc(SCC(=O)NCc2cccnc2)c2ccccc21	-9	-2	nt	nt	nt
COc1cccc(-n2c(Cc3cc(=O)[nH]c(=O)[nH]3)nnc2SCc2cccnc2)c1	-9	-12	nt	nt	nt
COCCCNC(=O)Cn1ncc2c(=O)oc3ccccc3c21	2	0	nt	nt	nt
COc1cc(CN2CCN(C(=O)CC(C)C)CC2)cc(OC)c1O	-2	-3	i	i	i
